E coli growth = E. coli growth inhibition | Escherichia coli growth, OD600, 23 h; hits give low values | actives 0.21% (n = 330,000) | OD600 absorbance (test concentration not listed);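 active = OD600 absorbance below the run mean of sample wells minus 3.6 SD, in any replicate, cut at about 0.56 in these data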;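 note: stock transfer was 300 nL into about 60 µL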
UCH37 DUB inh = blocks the human deubiquitinase UCH37. Q9Y5K5. inhibition, % (concentration not given with the values). actives 0.33% (n = 330,000). purified proteasome/UCH37, Ub-AMC cleavage fluorescence;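 active = mean of two replicates above 20%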;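 note: 0% = compound-free wells with enzyme and 100% = wells lacking proteasome; stock transfer was 100 nL into about 20 µL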
Target sequence (Q9Y5K5 whole entry, looked up): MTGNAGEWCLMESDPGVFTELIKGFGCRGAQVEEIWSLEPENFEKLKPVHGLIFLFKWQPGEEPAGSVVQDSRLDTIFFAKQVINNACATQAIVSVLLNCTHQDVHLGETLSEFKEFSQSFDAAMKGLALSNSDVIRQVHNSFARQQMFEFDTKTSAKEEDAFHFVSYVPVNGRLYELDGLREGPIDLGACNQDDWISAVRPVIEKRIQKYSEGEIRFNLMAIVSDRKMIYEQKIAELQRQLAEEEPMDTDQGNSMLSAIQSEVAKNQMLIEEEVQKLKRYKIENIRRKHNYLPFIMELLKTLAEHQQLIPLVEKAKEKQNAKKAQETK
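System: Proteasome-associated human UCH37 deubiquitinase; Input: 0.15 nM proteasome in added enzyme buffer; Also added: Ub-AMC substrate from 1 µM stock; Incubation: 30 min compound-proteasome preincubation then 25 min substrate reaction, room temperature; Detection: fluorescence, ex 355 nm, em 460 nm; Read-out: % inhibition of Ub-AMC cleavage fluorescence; Benchmarks: no-proteasome and no-compound wells.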
Bfl-1 A1 inh = inhibitors of the anti-apoptotic protein A1, read as caspase activation; AID 2462; MEF A1-2A-BIM cells, Caspase-Glo 3/7 luminescence, 3 h; percent of clofoctol response, vehicle zero; actives 0.066% (n = 330,000); caspase activation, % (concentration not given with the values);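 active = over half of replicate activation scores above 10%, or exactly half above 10 with the replicate mean above 10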;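 note: wells of about 30 µL received 50 nL stock; many hits fall short of the cut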
MLL AF4-AF9 inh = MLL-AF4/AF9 protein interaction inhibition; AlphaScreen, biotin-AF4 peptide binding to FLAG-AF9; inhibition, % at 10 µM; actives 0.47% (n = 350,000);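 active = every replicate reaching a set inhibition limit, whatever the replicate mean, cut at about 25% in these data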;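 note: 0% = plate neutral control median and 100% = total signal loss; the record names both 10 and 1 µM as test concentration; the first replicate is given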
Target sequence (P42568 whole entry, looked up): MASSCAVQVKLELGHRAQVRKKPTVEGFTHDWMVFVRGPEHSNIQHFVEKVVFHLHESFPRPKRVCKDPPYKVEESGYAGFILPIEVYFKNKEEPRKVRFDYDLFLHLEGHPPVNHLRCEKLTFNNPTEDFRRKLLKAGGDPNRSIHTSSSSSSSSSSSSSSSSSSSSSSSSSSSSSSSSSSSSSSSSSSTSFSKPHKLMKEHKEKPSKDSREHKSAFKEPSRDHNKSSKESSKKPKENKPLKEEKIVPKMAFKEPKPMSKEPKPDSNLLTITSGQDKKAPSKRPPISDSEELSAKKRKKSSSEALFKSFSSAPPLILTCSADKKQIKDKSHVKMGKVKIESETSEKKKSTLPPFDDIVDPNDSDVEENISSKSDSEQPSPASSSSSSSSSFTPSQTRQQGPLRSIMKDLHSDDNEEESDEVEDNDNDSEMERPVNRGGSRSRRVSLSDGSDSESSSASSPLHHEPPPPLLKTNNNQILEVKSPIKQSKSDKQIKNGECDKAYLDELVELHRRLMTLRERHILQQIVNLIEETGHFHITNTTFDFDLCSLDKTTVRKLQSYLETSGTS
Beta cell apopt = blocks beta cell apoptosis; actives 0.8% (n = 300,000); protection from apoptosis, % (concentration not given with the values); INS-1E cytokine-induced death, ATP luminescence, 48 h; percent of positive-control rescue, neutral wells zero; AID 435005;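 active = all replicates at 75% or more, or half of them and the mean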;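 note: 0% = cytokine-treated negative control wells and 100% = positive control rescue; higher means more ATP so stronger rescue from cytokine killing; wells of about 40 µL received 100 nL stock; the first replicate is given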
FGF22 binding = binders of recombinant human FGF22 by thermal shift; SYPRO orange fluorescence; percent of sucrose octasulfate shift, DMSO zero; calls only at 9.99 µM; actives 1.5% (n = 340,000);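 active = melting point raised past a set limit in the mean and every replicate; three in four hits are not shown here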
Target sequence (Q9HCT0 whole entry, looked up): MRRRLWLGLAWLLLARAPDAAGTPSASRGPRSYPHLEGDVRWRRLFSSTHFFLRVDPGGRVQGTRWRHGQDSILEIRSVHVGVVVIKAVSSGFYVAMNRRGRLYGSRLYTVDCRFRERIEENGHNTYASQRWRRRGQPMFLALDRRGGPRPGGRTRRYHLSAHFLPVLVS
Ecoli rRNA inh = inhibitors of bacterial rRNA selective over humanized ribosomes | E. coli WT GFP vs humanized-ribosome RFP mutants, fluorescence, 24 h; hits give low values; DMSO median 0, no signal -100 | GFP signal change (wild-type ribosome), % (no concentration beside the values) | actives 1.6% (n = 350,000) | AID 720706;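 active = significant combined selectivity score with lowered wild-type GFP, culture density cut under 30%, mutant RFP and density less affected; inactive = any of these conditions unmet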; note: one replicate is shown; some compounds called inactive have numbers as strong as hits
T cruzi repl = blocks replication of Trypanosoma cruzi; T. cruzi beta-gal in NIH3T3, luminescence, 90 h; inhibition, % (test concentration not listed); actives 1.4% (n = 300,000);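 active = mean inhibition across valid replicates above about 55%, limit read from the data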;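 note: signal also drops with host cell toxicity which is not excluded here; 0% = plate median of DMSO wells and 100% = zero luminescence signal; higher percent means less beta-gal luminescence so fewer parasites; stock transfer was 50 nL into about 50 µL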
Ecoli rRNA inh OD600 = recorded beside Ecoli rRNA inh, whose call it bears; OD600 change, %; measured here: OD600 growth;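 optical density of the mix in the first replicate; 0 = DMSO median and -100 = no signal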
Ecoli rRNA inh RFP = recorded beside Ecoli rRNA inh, whose call it bears; RFP signal change, %; measured here: RFP humanized mutant strains;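 first replicate; 0 = DMSO median and -100 = no signal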
* hit, by the source's call; i = inactive; . = not tested or not shown; & = joins results of further samples. A portion of the library (hit frequency here may not be typical).

SMILES | E coli growth | UCH37 DUB inh | Bfl-1 A1 inh | MLL AF4-AF9 inh | Beta cell apopt | FGF22 binding | Ecoli rRNA inh | Ecoli rRNA inh OD600 | Ecoli rRNA inh RFP | T cruzi repl
COC(=O)Nc1ccc(S(=O)(=O)N2CCCC(C(=O)O)C2)cc1 (stereo not given) | 0.65 | 6.0 | 0.2 | 0.0 | -5 | i | 7 | 6 | -1.2 | 10
CCc1ccc(C2c3[nH]c4ccccc4c3CCN2C(=O)CN2CCN(CC)CC2)cc1 (stereo not given) | 0.68 | 7.0 | 0.9 | 31* | 12 | i | -59 | -81 | -20 | 40
CC1(C)Cc2c(C#N)c(N3CCN(C(=O)c4ccccc4)CC3)nc(Cc3ccccc3)c2CO1 | 0.76 | -37 | 0.4 | . | 12 | . | . | . | . | 30
O/N=C/c1cn(-c2ccccc2)nc1-c1ccccc1 | . | . | 0.0 | -1.5 | 2 | i | -10 | -43 | -5.6 | 4
O=C(C=Cc1ccccc1)c1ccc([N+](=O)[O-])cc1 | 0.65 | 3.6 | . | 3.0 | . | i | -2 | -3 | 0.6 | .
CCN(CC)CC(=O)Nc1ccc(-c2nc3cc(NC(=O)CN(CC)CC)ccc3o2)cc1 | 0.73 | -312 | 0.3 | . | 6 | . | . | . | . | 38
Cc1ccc2c(c1)[C@H]1[C@H](CO2)[C@H](c2ccccc2)[C@]2(C)C(=O)N(Cc3ccc(F)cc3)CC(=O)N12 | . | 0.3 | -0.8 | -1.2 | 0 | i | 66 | 5 | 4.0 | .
CN(C)CCCNC(=O)C[C@H]1C[C@H](C(=O)N2CCOCC2)[C@@]2(C)c3[nH]c4cc(-c5ccco5)ccc4c3CCN2C1=O | 0.7 | -20 | . | 11 | . | i | 5 | 7 | 1.7 | .
O=C(CN1CCN(C(=O)c2ccco2)CC1)Nc1cc(Cl)ccc1Cl | 0.69 | 3.6 | -0.6 | . | 6 | . | . | . | . | 4
CN(C)c1ccc(NC(=O)CN2CCC(O)(c3ccccc3)CC2)cc1 | 0.71 | 1.9 | 0.6 | 6.6 | -2 | i | 12 | 3 | 1.5 | 17
COc1ccc(N2CC(C(=O)N[C@@H](C)C(=O)NC3CCCC3)CC2=O)cc1 (stereo not given in full) | 0.65 | 2.1 | -0.5 | 0.4 | -5 | i | 3 | 11 | -3.0 | 10
Cc1cccnc1NC(=O)CCNC(=O)c1ccc(Br)cc1 | 0.68 | 3.3 | -0.2 | 0.7 | -2 | i | 15 | 20 | 3.5 | -2
Cc1ccc(C(=O)NCCc2nnc(SCC(=O)Nc3cccc(C(=O)O)c3)n2C)cc1 | 0.69 | -1.4 | -0.8 | . | -1 | . | . | . | . | .
Cc1ccc(S(=O)(=O)N(C)Cc2nc(-c3ccc(Br)cc3)no2)cc1 | 0.74 | 3.5 | -0.9 | -4.2 | -8 | i | -4 | -3 | -2.1 | 10
CCOC(=O)c1nc(Nc2cc(Cl)ccc2OC)c2ccccc2n1 | 0.68 | -129 | 0.5 | -5.0 | -2 | i | 1 | 3 | 0.5 | -1
CC(=O)N(C1=C(N2CCOCC2)C(=O)c2ccccc2C1=O)c1ccc(C(=O)O)cc1 | 0.71 | 24* | -1.9 | -18 | -9 | i | -4 | 3 | 8.6 | -16
COc1ccc(-c2cn3cccnc3n2)cc1 | 0.64 | i | -5.8 | -1.1 | 1 | i | 13 | 11 | -1.2 | 3
O=[N+]([O-])c1[nH]cnc1/C=C/c1ccccc1 | 0.66 | 2.4 | -1.2 | 6.4 | 5 | i | 4 | -4 | 4.1 | -5
CCNc1nc(NCc2ccccc2)nc(Oc2ccc(=O)[nH]n2)n1 | 0.69 | 2.7 | 1.7 | . | 1 | . | . | . | . | 4
CC(=O)c1csc(-c2cccc(-c3nc4ccc(Cl)cn4c3NC3CCCCC3)c2)c1 | 0.78 | -5.7 | -1.1 | -26 | 32 | i | 3 | -11 | -0.9 | 7
Cc1nnc(SCc2ccc(CSc3nnc(C)c(=O)[nH]3)cc2)[nH]c1=O | 0.65 | 2.7 | -0.2 | -1.3 | -1 | i | 19 | 14 | 3.8 | -14
O=C1c2[nH]nc(-c3ccccc3O)c2C(c2ccccc2F)N1Cc1ccco1 (stereo not given) | 0.69 | 1.7 | 1.1 | . | -3 | . | . | . | . | 14
O=[N+]([O-])c1ccc(N2CCCCCC2)c([N+](=O)[O-])c1 | 0.68 | 5.6 | -0.5 | . | -7 | . | . | . | . | 3
CCNC(=O)C(=O)Nc1cc2c3c(c1)CCN3C(=O)CC2 | 0.68 | 7.6 | 2.3 | -0.1 | -4 | i | 4 | 1 | -6.3 | -23
CCOC(=O)N1CCC(NC(=O)C2CCCN(S(=O)(=O)c3cccc4nsnc34)C2)CC1 (stereo not given) | 0.74 | 4.3 | 1.5 | . | -10 | . | . | . | . | 6
O=c1c2ccccc2ncn1CCOCCOc1ccc([N+](=O)[O-])cc1 | 0.71 | 6.7 | -0.5 | -0.9 | 3 | i | -2 | 2 | -3.4 | 0
O=C1CCN(CCc2ccccc2)CCN1[C@H](CSc1ccc(Br)cc1)Cc1ccccc1 | . | -0.9 | -0.9 | 3.9 | 9 | i | -18 | -21 | 23 | 13
Cc1cccc(C(=O)n2c(=S)nc3ccccn32)c1 | 0.67 | 3.2 | -7.0 | . | 1 | . | . | . | . | 1
O=C(c1cc2ccccc2o1)N1CCN(S(=O)(=O)c2ccccc2)CC1 | 0.67 | 3.0 | . | -0.1 | . | i | -1 | 3 | 0.8 | .
COc1ccc(N2CC(NC(=O)c3cccc4ccccc34)CC2=O)cc1OC (stereo not given) | 0.71 | -0.7 | 0.4 | -7.6 | -7 | i | -1 | -5 | -0.8 | 2
CCCCN1C(=O)C(=O)N(CC(=O)Nc2cc(S(=O)(=O)N(C)C)ccc2C)C1=O | 0.64 | 0.3 | -0.1 | -0.1 | -9 | i | 4 | 4 | 2.0 | 1
Cc1ccc(CNC(=O)c2cc(S(=O)(=O)N3CCCC3)cn2C)cc1 | 0.69 | 6.2 | 0.6 | 7.7 | -12 | i | 9 | -7 | -2.8 | -2
O=c1[nH]n(CCO)c(=O)c2cccnc12 | 0.68 | 5.3 | 0.1 | -1.3 | -1 | i | . | . | . | 8
CNC(=O)C(C)N1c2cccc3cccc(c23)S1(=O)=O (stereo not given) | 0.68 | -57 | 2.7 | 2.3 | -11 | i | 5 | 12 | -2.0 | -9
CCCn1c(N)c(N2CCCCC2)c(=O)n(CC(=O)Nc2cccc(S(=O)(=O)N(C)C)c2)c1=O | 0.7 | 5.1 | 0.0 | -0.3 | -1 | i | -7 | 4 | -4.5 | .
O=C(N/N=C/c1ccc2c(c1)OCO2)c1ccn(Cc2ccc(Cl)cc2)n1 | . | . | -1.7 | -0.3 | -5 | i | 4 | 3 | 0.4 | .
CN1C[C@H](C(=O)N[C@]2(C)O[C@@]3(O)[C@@H]4CCCN4C(=O)[C@H](Cc4ccccc4)N3C2=O)CC2c3cccc4[nH]cc(c34)C[C@H]21 (stereo not given in full) | . | 1.4&0.4 | 0.5 | 12&15 | -13 | i | . | . | . | .
O=[N+]([O-])c1ccc(N/N=C2/CCCCC2c2ccccn2)cc1 (stereo not given) | . | . | . | 4.9 | . | i | 15 | 19 | 8.2 | 22
c1ccc2c(c1)C(=Nn1cnnc1)c1ccccc1-2 | 0.66 | 3.7 | 0.5 | . | . | . | . | . | . | -22
Cc1onc(-c2c(F)cccc2Cl)c1C(=O)NC(=S)NC1CCS(=O)(=O)C1 (stereo not given) | 0.66 | -0.7 | 0.5 | . | 0 | . | . | . | . | -5
COc1ccc2c(C)nc(N/C(N)=N/S(=O)(=O)c3ccc(C)cc3)nc2c1 | 0.7 | 0.8 | 0.1 | -1.5 | . | i | 14 | 11 | 3.4 | 29
O=C(NCCCNc1ccc([N+](=O)[O-])cc1)C(F)(F)F | 0.68 | 9.8 | -0.2 | 5.8 | . | i | -4 | -9 | 4.3 | -13
COc1cccc(-n2c(=O)c3sccc3n(CC(=O)NCC3CCCO3)c2=O)c1 (stereo not given) | 0.69 | 1.4 | 1.0 | -2.0 | -4 | i | 9 | 7 | -1.7 | -14
c1ccc(C2CC(c3ccccc3)n3ncnc3N2)cc1 (stereo not given) | 0.72 | 3.2 | -0.7 | . | . | . | . | . | . | -16
CC(C)n1c(SCC(=O)Nc2nncs2)nnc1C1CC1 | 0.71 | 0.1 | 0.0 | -1.7 | 3 | i | -1 | -7 | -1.3 | 7
CCCCNC(=O)CN1C(=O)c2cccc(N)c2C1=O | 0.71 | -197 | . | -5.4 | . | i | 10 | 9 | 0.3 | -9
O=C(O)CCn1cc(/C=C2\NC(=S)N(c3ccccc3)C2=O)c(-c2ccc(Br)cc2)n1 | 0.69 | 6.7 | 0.0 | 1.6 | . | i | -14 | -21 | 3.6 | 7
COc1ccc2c(c1)cc(C)c1nnc(SCC(=O)N(C)c3nc(-c4ccccc4)cs3)n12 | 0.72 | -7.5 | 0.2 | . | -7 | . | . | . | . | 7
O=C(NCc1cccnc1)[C@@H]1CC=C[C@@H]2CCN(Cc3ccccc3)C(=O)[C@@H]21 | . | 0.8 | 3.5 | . | -10 | i | 11 | 10 | -6.7 | -17
CCC(C)N(C(=O)CSc1nc(-c2cccs2)nc2ccccc12)C1CCS(=O)(=O)C1 (stereo not given) | 0.71 | -50 | . | 0.2 | . | i | -7 | -15 | 4.9 | .
Cc1c(NC(=S)NC(=O)CSc2ccc(Cl)cc2)cccc1C(=O)O | 0.69 | 0.7 | 0.0 | 0.2 | 1 | i | -11 | -9 | -0.8 | -5
CN(C)CCOC(=O)CCc1ccccc1 | 0.66 | 5.2 | 0.2 | . | -10 | . | . | . | . | -14
CCOC(=O)C1(CCOc2ccccc2)CCN(Cc2ccc(C(=O)OC)cc2)CC1 | 0.63 | 5.0 | -1.7 | 3.1 | -2 | i | -38 | -36 | -4.9 | 29
Cc1cccc(Nc2c([N+](=O)[O-])ccc3nonc23)c1C | 0.69 | 1.1 | . | -0.2 | . | i | 9 | 8 | -2.4 | -16

Complete entries as entered above. Values in the order: E coli growth | UCH37 DUB inh | Bfl-1 A1 inh | MLL AF4-AF9 inh | Beta cell apopt | FGF22 binding | Ecoli rRNA inh | Ecoli rRNA inh OD600 | Ecoli rRNA inh RFP | T cruzi repl
Profile of Cc1c(NC(=S)NC(=O)CSc2ccc(Cl)cc2)cccc1C(=O)O → 0.69 | 0.7 | 0.0 | 0.2 | 1 | i | -11 | -9 | -0.8 | -5
Profile of Cc1cccc(Nc2c([N+](=O)[O-])ccc3nonc23)c1C → 0.69 | 1.1 | . | -0.2 | . | i | 9 | 8 | -2.4 | -16
Profile of CCC(C)N(C(=O)CSc1nc(-c2cccs2)nc2ccccc12)C1CCS(=O)(=O)C1 (stereo not given) → 0.71 | -50 | . | 0.2 | . | i | -7 | -15 | 4.9 | .
Profile of CCOC(=O)C1(CCOc2ccccc2)CCN(Cc2ccc(C(=O)OC)cc2)CC1 → 0.63 | 5.0 | -1.7 | 3.1 | -2 | i | -38 | -36 | -4.9 | 29
Profile of CN(C)CCOC(=O)CCc1ccccc1 → 0.66 | 5.2 | 0.2 | . | -10 | . | . | . | . | -14
